RE007 growth inh = less growth of the S. pombe RE007 Vpr strain | S. pombe RE007 Vpr strain, BacTiter-Glo ATP luminescence, 24 h; control for the full effect not named in the record | Potency, µM (doses to about 92.2 µM), without a hit: at the highest dose activity change, negative = less growth | hit rate 0.21% among 360,000 | AID 651644; active = well fitted falling curve with a large enough effect; inconclusive = small, poorly fitted or top-dose-only effect; inactive = no such curve, though single readings can be large or run the other way;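 note: % is set by controls: 0 for no effect and ±100 for the full control effect; nearly all actives have a fitted effect of over 50% in size; the assay follows cell death caused by Vpr and the record does not say whether a fall means rescue or toxicity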
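Fission yeast RE007 carrying one integrated HIV-1 vpr copy, seeded at OD 0.01 in PMG+AL medium with 23 nL pinned compound. Grown 24 h at 30 degrees; viability read by BacTiter-Glo luminescence after 5 min.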
Cruzain inh Det = blocks cruzain activity in presence of Triton detergent | purified cruzain, Z-FR-AMC fluorescence, 0.01% Triton | Potency, µM, for inactives: max response, negative = inhibition, hits mostly inhibitors | hit rate 0.43% among 200,000 | AID 1478;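 note: plate controls were neutral wells for no effect and buffer without enzyme for full effect; nearly all actives have a fitted effect of over 40% in size; top concentration of the series not given in the record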
Target sequence (P25779 123-467 limits assumed): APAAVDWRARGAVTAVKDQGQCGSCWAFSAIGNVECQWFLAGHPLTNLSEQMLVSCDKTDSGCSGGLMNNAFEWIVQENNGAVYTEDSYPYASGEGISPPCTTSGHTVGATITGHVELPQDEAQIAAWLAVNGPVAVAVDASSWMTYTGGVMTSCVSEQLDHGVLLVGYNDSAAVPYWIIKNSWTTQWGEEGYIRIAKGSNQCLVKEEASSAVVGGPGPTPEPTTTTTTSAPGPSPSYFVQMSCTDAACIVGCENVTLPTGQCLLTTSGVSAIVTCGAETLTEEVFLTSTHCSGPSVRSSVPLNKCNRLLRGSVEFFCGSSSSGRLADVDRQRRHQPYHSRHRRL
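Steps: dispense cruzain (1.5 nM final) in acetate buffer pH 5.5 with DTT and 0.01% Triton X-100; pin-transfer compounds; incubate 15 min RT; add Z-FR-AMC (2 uM final); read fluorescence every 30 s, using the 60 s intensity change.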
StopGo reporter = FMDV 2A StopGo reporter, luciferase signal; hit rate 1.2% among 410,000; Potency, µM (top dose mostly 57.9 µM), without a hit: at the top dose signal change, negative = less light; human cells with a luciferase reporter of 2A StopGo recoding; control for the full effect not named in the record; active = well fitted falling curve with a large enough effect; inconclusive = small, poorly fitted or top-dose-only effect; inactive = no such curve, though single readings can be large or run the other way; tested in HEK293T cells; note: % is set by controls: 0 for no effect and ±100 for the full control effect; nearly all actives have a fitted effect of over 45% in size; luciferase light after 4 h
NS1 inh = influenza NS1 inhibition | hit rate 0.4% among 270,000 | Potency, µM (highest dose often 46.1 µM), without a hit: at the top dose activity, positive = more growth | S. cerevisiae slowed by influenza A NS1, growth recovery by OD600; active means well fitted rising curve with a large enough effect; inconclusive means small, poorly fitted or top-dose-only effect; inactive means no such curve, though single readings can be large or run the other way; note: nearly all actives have a fitted effect of over 50% in size
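Recovery from NS1-induced slow growth read by OD600 in budding yeast switched to galactose assay medium (pH 6.0, -URA) at 1:100 dilution. Compound 23 nl per well; the matching strain lacking NS1 serves as control.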
Marburg entry inh = Marburg virus entry inhibition | AID 540276 | Potency, µM (titrated, usually from 37.8 µM), inactives show at the highest dose activity change, negative = inhibition, usual class: inhibitors | hit rate 1.8% among 300,000 | Marburg virus pseudotyped entry inhibition, cell reporter; control for the full effect not named in the record; about a third of the inactives were read at about 46 µM; active = well fitted inhibition curve with a large enough effect; inconclusive = small, poorly fitted or top-dose-only effect, or effect the other way; inactive = flat fitted curve, though single readings scatter; tested in HEK293 cells; about a fifth of its hits are not listed in these tables; note: % is set by controls: 0 for no effect and ±100 for the full control effect; luciferase read-out
Cruzain inh noDet = cruzain (T. cruzi) inhibition without detergent. P25779. purified cruzain, Z-FR-AMC fluorescence, no detergent. Potency, µM, without a hit: max response, negative = inhibition, actives largely listed as inhibitors. hit rate 2.3% among 200,000. AID 1476;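 note: plate controls were enzyme without inhibitor for no effect and buffer without enzyme for full effect; nearly all actives have a fitted effect of over 40% in size; top concentration of the series not given in the record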
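Detergent-free condition (0.00005% Triton X-100) in acetate buffer pH 5.5 with DTT. 1.5 nM enzyme and compound were pre-mixed 15 min, then 2 uM Z-FR-AMC substrate added; reaction progress from fluorescence change between first and third reads (60 s).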
SARS PLpro yeast = SARS-CoV PLP inhibition in yeast. hit rate 0.19% among 330,000. S. cerevisiae expressing SARS-CoV PLpro, growth rescue; control for the full effect not named in the record. Potency, µM (doses to about 32.9 µM), for the others: at the top dose activity, positive = growth rescue; active means well fitted rising curve with a large enough effect; inconclusive means small, poorly fitted or top-dose-only effect; inactive means no such curve, though single readings can be large or run the other way; note: 0% is about no effect; nearly all actives have a fitted effect of over 55% in size; growth read by luminescence after 48 h
Lassa entry inh = inhibitors of Lassa virus binding or cell entry; Potency, µM (doses to about 37.9 µM), inactives show at the highest dose activity change, negative = inhibition, hits mostly inhibitors; hit rate 1.2% among 300,000; Lassa virus pseudotype entry inhibition, cell reporter; control for the full effect not named in the record; active means well fitted inhibition curve with a large enough effect; inconclusive means small, poorly fitted or top-dose-only effect, or effect the other way; inactive means flat fitted curve, though single readings scatter; tested in HEK293 cells; note: % is set by controls: 0 for no effect and ±100 for the full control effect; nearly all actives have a fitted effect of over 50% in size; luciferase read-out
* hit, by the source's call; ? = inconclusive; / = not tested or not shown; & = joins results of further samples; [ ] = another dose, or the depositor's remark. Unless noted, calls come from the whole dose curve; as a rule, active = well fitted curve in the direction sought with a large enough effect; inconclusive = small, poorly fitted or top-dose-only effect, or another doubt; inactive = no such curve, though single readings can be large; an effect the other way counts as inactive or inconclusive. Potency is the fitted concentration of half-maximal effect.

SMILES	RE007 growth inh	Cruzain inh Det	StopGo reporter	NS1 inh	Marburg entry inh	Cruzain inh noDet	SARS PLpro yeast	Lassa entry inh
CC(OC(=O)c1cc(=O)[nH]c2ccccc12)c1ccccc1 (stereo unspecified)	-12%	-2.0%	46%[activator]	-24%	10%	-2%	-3%	?
CC1CC(C)CN(C(=O)c2ccccc2Nc2ccc(SC(F)F)cc2)C1 (stereo unspecified)	-1%	-1.9%	?	-30%	?	0%	-29%	1%
O=S(=O)(c1ccccc1C(F)(F)F)N1CCN(c2ncnc3sccc23)CC1	28%	/	?	/	?	/	-14%	?
Cn1cc(/C=N/NC(=O)c2ccc(C#N)cc2F)c2ccccc21	1%	/	16%	/	10%[46.1 µM]	/	1%	-1%[46.1 µM]
CCOC(=O)c1c(N)sc(C(=O)N(CC)CC)c1C	-6%	/	-11%	2%	-16%[46.1 µM]	/	1%	15%[46.1 µM]
Cc1ccc(C2CC(c3ccccc3)n3ncnc3N2)cc1 (stereo unspecified)	-5%	-3.3%	-23%	-2%	-3%	-6%	0%	/
COC(=O)CN1C(=O)CSc2ccc(S(=O)(=O)Nc3ccc(F)c(Cl)c3)cc21	/	-11%	59%[activator]	/	/	16%	/	-8%[46.1 µM]
O=C(N/C(=C\c1ccc2c(c1)OCO2)C(=O)N1CCOCC1)c1cccs1	11%	-7.6%	17%	8%	-4%	2%	0%	-21%
CCCn1cc(S(=O)(=O)c2ccccc2)c(=O)c2cc(F)c(N3CCN(C)CC3)cc21	13%	/	57%[activator]	-2%	-30%[46.1 µM]	/	7%	27%[46.1 µM]
COc1ccc2[nH]c(C)c(CCN(Cc3cccs3)C(=S)Nc3ccccc3)c2c1	9%	-5.0%	-1%	?	0%	?	-1%	/
Cc1nnc(N2CCC(C(=O)NCCC(C)C)CC2)c2nn(-c3ccc(Cl)cc3)c(C)c12	/	-1.4%	-10%	/	/	-1%	/	4%[46.1 µM]
CCOC(=O)CNC(=O)c1cc2c(=O)n(CC)c3ccccc3c2s1	/	1.4%	16%	/	-3%[46.1 µM]	-10%	/	23%[46.1 µM]
O=C(CNC(=O)c1sc2ccccc2c1Cl)NCc1cccnc1	-21%	/	2%	21%	?	/	0%	?
Cc1cccc(-n2cnc3cc(C(=O)N4CCCCC4)ccc32)c1	7%	0.3%	44%[activator]	-48%	5%&5%	-3%	-3%	14%
CCCN1CCN(CCCNC(=O)C2CCN(c3nnc(-n4c(C)ccc4C)s3)CC2)CC1	?	/	-6%	-3%	15%[46.1 µM]	/	-2%	14%[46.1 µM]
CC(C)CN1C(=O)C(=O)N(CC(=O)NCc2ccc3c(c2)OCO3)C1=O	11%	-3.0%	6%	1%	0%	-7%	6%	-19%
CCc1cccc(-n2c(=O)c3cccnc3n2CC(=O)NCc2ccc(C)cc2)c1	/	0.8%	-15%	/	/	-17%	/	-9%[46.1 µM]
COc1ccccc1C(=O)Nc1cc2ccccc2oc1=O	3%	20%	37%[activator]	?	?	3%	4%	1%
O=C1c2ccccc2S(=O)(=O)N1Cc1c(F)cccc1Cl	-3%	/	4%	-12%	-1%[46.1 µM]	/	2%	5%[46.1 µM]
CCn1c(=O)c(C(=O)CN2CCN(S(=O)(=O)c3cc(C)ccc3C)CC2)c(N)n(Cc2ccccc2)c1=O	2%	-7.4%	?	3%	?	13%	-14%	?
CC1CCc2c(nc3ncnn3c2N2CCN(c3ccccc3)CC2)C1 (stereo unspecified)	7%	-4.5%	?	-8%	-13%	-3%	-2%	-22%
Cc1nn(-c2ccc(F)cc2)c(C)c1CN1CCN(CCc2ccccc2)C(CCO)C1 (stereo unspecified)	0%	/	?	-2%	/	/	0%	/
Cc1cc(Cl)ccc1NC(=O)CN1C(=O)COc2ccc(S(=O)(=O)Nc3ccccc3)cc21	/	-8.0%	24%	/	/	-5%	/	-23%[46.1 µM]
O=C(C1CCCC1)N1CCC(CC2CC(c3cccc(Br)c3)=NO2)(C(=O)NCC2CCCCC2)CC1 (stereo unspecified)	-12%	/	0%	22µM*	/	/	3%	/
CCOC(=O)CCNC(=O)Nc1ccc2nc(C)n(Cc3cccc(Cl)c3)c(=O)c2c1	10%	-5.3%	/	-8%	?	?	2%	-14%
NC(=O)c1c(NC(=S)Nc2ccc(F)cc2)sc2c1CCCC2	?	/	28%	0%	7%[46.1 µM]	/	0%	-20%
CCCN(CC(=O)Nc1ccccc1C)C(=O)C1CC(=O)N(c2cccc(C)c2C)C1 (stereo unspecified)	26%	/	-7%	/	-1%[46.1 µM]	/	-1%	-2%
O=C(NC(=S)NC1CCSC1=O)c1cccc([N+](=O)[O-])c1 (stereo unspecified)	-4%	/	-7%	-4%	/	/	-2%	/
OCCNc1ncnc2c1sc1nc(N3CCOCC3)c3c(c12)CCC3	-10%	/	-22%	/	-14%	/	0%	?
O=C(NC(=S)Nc1ccc(CN2CCOCC2)cc1)c1ccc([N+](=O)[O-])cc1	0%	-9.6%	?	2%	/	-13%	0%	/
CCN1CCN(C(c2ccc(F)cc2)c2sc3nc(-c4ccco4)nn3c2O)CC1 (stereo unspecified)	/	2.8%	-4%	/	/	-3%	/	?
CCCC(=O)Nc1ccc2nc(SCC(=O)N3CCOCC3)sc2c1	/	-4.0%	7%	/	?	-3%	/	20%[46.1 µM]
FC(F)Sc1ccc(NC(=S)NC2CCC(NC(=S)Nc3ccc(SC(F)F)cc3)CC2)cc1 (stereo unspecified)	5%	2.3%	-10%	5%	-5%	16µM*	0%	0%
CCc1ccc(OCC(=O)Nc2ccc(Cl)c(-c3nc4ncccc4o3)c2)cc1	/	-6.2%	?	/	/	0%	/	-2%[46.1 µM]
O=C(NCCc1ccccc1)c1ccc(CS(=O)Cc2ccc(Cl)cc2)o1 (stereo unspecified)	16%	-3.7%	-12%&-3%	-3%	6%&6%[46.1 µM]	-5%	11%	?
CC(=O)c1ccc(S(=O)(=O)N(C)CCCC(=O)N(C)Cc2ccccc2F)cc1	0%	/	-9%	-26%	4%[46.1 µM]	/	1%	6%[46.1 µM]
Cc1nn(-c2ccccc2)c2sc(C(=O)Nc3ccc(Br)cc3)cc12	/	-3.7%	-11%	/	-2%[46.1 µM]	5%	/	24%[46.1 µM]
COC(=O)/C(C#N)=C1/C=Cc2ccccc2N1C	-6%	-5.8%	48%[activator]	1%	20%	-8%	-3%	1%
COc1ccccc1CNC(=O)c1csc2c1CCCC2	6%	/	0%	/	4%&4%	/	-6%	8%
COc1ccc(OCC(=O)N2N=C(C)CC2(O)C(F)(F)F)cc1 (stereo unspecified)	-2%	/	-2%	/	1%[46.1 µM]	/	0%	-7%[46.1 µM]
COC(=O)c1sccc1NC(=S)N1CCN(c2ccccc2)CC1	-9%	-2.3%	-19%	-8%	8%	-16%	-9%	?
O=C(CSc1ccc(-c2ccco2)nn1)Nc1ccccc1F	-4%	/	-15%	-5%	/	/	-2%	/
CCCCn1c(=NC(=O)c2ccco2)c(C(=O)OCC)cc2c(=O)n3ccccc3nc21	-9%	-13%	-2%	13%	?	-7%	5%	-25%
Cc1ccc(Cl)cc1N1CCN(C(=O)c2cc3c(=O)n(C)c4ccccc4c3s2)CC1	/	0.1%	?	/	1%[46.1 µM]	8%	/	?
S=C(Nc1ccccc1Cl)N(Cc1ccccc1)Cc1cccnc1	-15%	/	-5%	/	-10%[46.1 µM]	/	-2%	13%
O=C(CSc1nnc(NC(=O)c2c(F)cccc2F)s1)NC1CCCC1	-5%	/	10%	5%	-8%[46.1 µM]	/	1%	17%[46.1 µM]
O=C(CSc1cc([N+](=O)[O-])cc(S(=O)(=O)Cc2ccccc2)c1)NC1CC1	18%	-5.4%	?	6%	-16%	-2%	21%	11%
C/C(=N/NS(=O)(=O)c1ccc(Br)cc1)c1ccc(C)o1	-4%	-4.3%	28%	3%	?	-6%	-16%	12%
Cc1cccc(-n2c(SCC(=O)N3CCCC3)nc3n[nH]c(C)c3c2=N)c1	-2%	-2.3%	2%	10%	-4%	5%	5%	?
Cc1noc2ncnc(Oc3ccccc3Cl)c12	0%	/	-9%	10%	8%	/	-1%	0%
Cc1cccc(-n2ncc3c(NCCN4CCOCC4)ncnc32)c1	8%	-3.0%	36%[activator]	-2%	?	2%	0%	19%
COc1cc(/C=N/NC(=O)Cc2nnc(NC(=O)c3ccccc3)s2)ccc1O	12%	/	5%	12%	15%[46.1 µM]	/	-2%	22%[46.1 µM]
CN(O)/C=c1/ccc2c(n1)C(=O)C=CC=2	?	2.7%	-25%	-36%	-19%	-25%	-85%	?
O=C(CSc1nc2ccccc2o1)N1CCN(c2ccc(Cl)cc2)CC1	-6%	2.1%	-6%	4%	-4%[46.1 µM]	10µM*	-1%	0%
O=C(Cc1ccccc1)N(Cc1cccnc1)c1nc2c(F)cc(F)cc2s1	/	-5.9%	-3%	/	/	?	/	13µM*
CC(C)(C)C(=O)Nc1ccccc1C(=O)NCc1cccnc1	6%	/	4%	5%	/	/	1%	/
Cc1ccc(OCC(=O)O/N=C(\N)c2cccnc2)cc1	-16%	/	35%[activator]	-5%	21%[46.1 µM]	/	-2%	8%
CCc1noc(C)c1C(=O)N1CCCSC1=Nc1ccccc1Cl	-28%	/	-5%	/	?	/	1%	?
O=C(NCCNS(=O)(=O)c1ccccc1)N1CCOCC1	3%	-1.5%	/	4%	12%	-5%	-5%	18%
CCCN1C=CC(=C2C(=O)c3ccccc3C2=O)C=C1	?	-7.2%	1µM*	-2%	0.21µM*	-12%	-30%	0.21µM*
CCOc1ccc(C(=O)Nc2ccc(C(=O)OCc3cc(=O)n4nc(CC)sc4n3)cc2)cc1	/	0.3%	-3%	/	/	-3%	/	4%[46.1 µM]
COC(=O)c1ccc(CN(c2ccc(C)cc2)S(=O)(=O)c2ccc3c(c2)OCCO3)o1	16%	-4.4%	3%	-7%	?	3%	0%	-20%

Screening data as filed in PubChem BioAssay.
